NPYLR7 agonist: activates Aedes aegypti NPYLR7 receptor; HEK293T NPYLR7/Galpha15, GCaMP6s calcium fluorescence; activation, % at 10 µM; 0.15% of 270,000 active; AID 1259423; in the data active = activation above about 40%;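 note: 0% = vehicle and 100% = reference agonist at the receptor; some compounds past the cut are filed as inactive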
NPYLR7 agonist max-min: recorded beside NPYLR7 agonist, whose call it bears; activation, %; measured here: Max-Min RFU normalised activation; some inactives read as strong as hits;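 span of the calcium signal over five minutes; 0% = vehicle and 100% = native peptide agonist; compound fluorescence can raise it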
The depositor's hits bear a star. Some of the compounds tested; count on the stated rates, not on these rows.

Cc1ccc(C(CN2CCOCC2)NS(=O)(=O)c2cccc(Br)c2)cc1 (stereo not given) was read as NPYLR7 agonist 4 and NPYLR7 agonist max-min 2.
For Cc1cc(OS(=O)(=O)c2ccc(Cl)cc2)cc2c1C(=O)/C(=C/c1ccncc1)O2 the results were NPYLR7 agonist -5 and NPYLR7 agonist max-min -6.
For Nc1nnc(SCC(=O)NCc2ccco2)s1 the results were NPYLR7 agonist -6 and NPYLR7 agonist max-min -14.
COc1ccc(/C=C2N=C(/C=C/c3ccc(Cl)cc3)OC/2=O)c(OC)c1 was read as NPYLR7 agonist 22 and NPYLR7 agonist max-min 18.
Screening O=C(C1COc2ccccc2O1)N1CCN(Cn2c(=O)oc3ccccc32)CC1 (stereo not given) returned NPYLR7 agonist -1 and NPYLR7 agonist max-min -2.
CC(=O)c1c(C)[nH]c(C(=O)N(CC(C)C)CC(C)C)c1C was read as NPYLR7 agonist 8 and NPYLR7 agonist max-min 2.
`CC(C)CCOC(C)C(=O)N1CC2CCCN2Cc2ccccc21` (stereo not given) gave NPYLR7 agonist 10 and NPYLR7 agonist max-min 7.
For COc1ccccc1Cc1nc2c(c(N3CCOCC3)n1)CN(C(=O)c1ccc([N+](=O)[O-])cc1)CC2 the results were NPYLR7 agonist -3 and NPYLR7 agonist max-min -4.
O=C(c1cc(=O)c2ccccc2o1)N1Cc2cnn(CCO)c2C1 was read as NPYLR7 agonist 18 and NPYLR7 agonist max-min 10.
Screening Cc1ccc(-c2c(C)oc(C)c2C(=O)NCCC(c2ccccc2)c2ccccc2)cc1 returned NPYLR7 agonist -3 and NPYLR7 agonist max-min -7.
COc1ccc(Cn2cnc3c4ccccc4n(CC(=O)NCc4cccc(OC)c4)c3c2=O)cc1 was read as NPYLR7 agonist 3 and NPYLR7 agonist max-min -3.
`CCCCc1cn(C2CCN(C(=O)C3CC(=O)N(C(C)(C)C)C3)CC2)nn1` (stereo not given) gave NPYLR7 agonist 18 and NPYLR7 agonist max-min 6.

3 compounds already listed, ordered by length of the SMILES, falling:
COc1ccc(/C=C2N=C(/C=C/c3ccc(Cl)cc3)OC/2=O)c(OC)c1 was read as NPYLR7 agonist 22 and NPYLR7 agonist max-min 18.
Cc1ccc(C(CN2CCOCC2)NS(=O)(=O)c2cccc(Br)c2)cc1 (stereo not given) was read as NPYLR7 agonist 4 and NPYLR7 agonist max-min 2.
For Nc1nnc(SCC(=O)NCc2ccco2)s1 the results were NPYLR7 agonist -6 and NPYLR7 agonist max-min -14.

(list continues)
Screening CC(C)N(Cc1nccn1Cc1ccc(Cl)cc1Cl)C(=O)c1ccco1 returned NPYLR7 agonist -6 and NPYLR7 agonist max-min 11.
Screening Cc1ccc(CN(Cc2ccccc2)C(=O)CN(CCN2CCOCC2)C(=O)c2ccc(C(F)(F)F)cc2)o1 returned NPYLR7 agonist 7 and NPYLR7 agonist max-min 10.
`O=C(Cn1cnc2c(nnn2-c2ccc(F)cc2)c1=O)N1CCCCCC1` gave NPYLR7 agonist 8 and NPYLR7 agonist max-min 10.
C(=NN1CCOCC1)c1cn(-c2ccccc2)nc1-c1cc2ccccc2o1 was read as NPYLR7 agonist 3 and NPYLR7 agonist max-min 3.
`COCC(C)NCc1ccccc1CN1CCCC1=O` (stereo not given) gave NPYLR7 agonist 16 and NPYLR7 agonist max-min -2.
For CCn1c(C2CC(=O)N(CCc3ccccc3)C2)nc2ccccc21 (stereo not given) the results were NPYLR7 agonist 5 and NPYLR7 agonist max-min 9.
COc1ccc(NC(=O)COC(=O)Cc2ccc(C)c(C)c2)cc1OC was read as NPYLR7 agonist -2 and NPYLR7 agonist max-min -4.
For COc1ccc(OC)c(N2C(=O)CSC2c2ccccc2NC(=O)C2CCCCC2)c1 (stereo not given) the results were NPYLR7 agonist -1 and NPYLR7 agonist max-min 8.
Cc1c(O)cc(C(=O)N2CCCC(c3[nH]ncc3-c3ccccc3)C2)cc1O (stereo not given) was read as NPYLR7 agonist -4 and NPYLR7 agonist max-min -4.
Screening O=C(NC1CCN(c2ccccc2C(=O)NCC2CCCCC2)CC1)c1ccc(C(F)(F)F)cc1 returned NPYLR7 agonist 9 and NPYLR7 agonist max-min 21.
`Cc1ccc(CN(C)C(C)c2nc(N)nc(Nc3ccccc3)n2)o1` (stereo not given) gave NPYLR7 agonist 1 and NPYLR7 agonist max-min 0.
Screening COc1ccc(C2=NN(S(C)(=O)=O)C(c3cccc(OC)c3OC)C2)cc1OC (stereo not given) returned NPYLR7 agonist 0 and NPYLR7 agonist max-min 1.

Compounds shown so far that have fluorine:
Screening Cc1ccc(CN(Cc2ccccc2)C(=O)CN(CCN2CCOCC2)C(=O)c2ccc(C(F)(F)F)cc2)o1 returned NPYLR7 agonist 7 and NPYLR7 agonist max-min 10.
`O=C(Cn1cnc2c(nnn2-c2ccc(F)cc2)c1=O)N1CCCCCC1` gave NPYLR7 agonist 8 and NPYLR7 agonist max-min 10.
Screening O=C(NC1CCN(c2ccccc2C(=O)NCC2CCCCC2)CC1)c1ccc(C(F)(F)F)cc1 returned NPYLR7 agonist 9 and NPYLR7 agonist max-min 21.

More structures follow:
Screening COc1cccc(-n2c(=O)[nH]c3c(C(N)=O)nc(-c4ccc(Cl)c(Cl)c4)nc32)c1 returned NPYLR7 agonist 13 and NPYLR7 agonist max-min 5.
For COc1cccc(-c2nnc3ccc(OCCNC(=O)C4CC4)nn23)c1 the results were NPYLR7 agonist -11 and NPYLR7 agonist max-min -17.
Screening CN(C)c1ncncc1NC(=O)Cc1cccc(F)c1 returned NPYLR7 agonist 12 and NPYLR7 agonist max-min 5.
For CCc1nc(CN2CCCC(CNC(=O)NC(C)(C)C)C2)c(C)[nH]1 (stereo not given) the results were NPYLR7 agonist 2 and NPYLR7 agonist max-min 1.
For COc1ccc(OCCSc2nnc(Nc3ccccc3OC)s2)cc1 the results were NPYLR7 agonist 4 and NPYLR7 agonist max-min 5.
`COc1ccc(-c2noc(CN3c4ccccc4CCC3C)n2)cc1OC` (stereo not given) gave NPYLR7 agonist -6 and NPYLR7 agonist max-min -6.
Screening Cc1nnc(SCC(=O)NC2CCCCC2C)n1C1CCCCC1 (stereo not given) returned NPYLR7 agonist 6 and NPYLR7 agonist max-min 3.
Screening C=C(C)Cn1c(SCCCCCCC)nc2c1c(=O)n(C)c(=O)n2C returned NPYLR7 agonist 8 and NPYLR7 agonist max-min 2.
For Cc1ccccc1C1c2ccsc2CCN1C(=O)CNCc1ccco1 (stereo not given) the results were NPYLR7 agonist -11 and NPYLR7 agonist max-min -19.
`Cc1ccc2c(CC(=O)N3CCOCC3)c(Br)oc2c1` gave NPYLR7 agonist -1 and NPYLR7 agonist max-min 1.
`CCCC(C)NC(=O)CN1C(=O)NC(CC)(c2ccccc2)C1=O` (stereo not given) gave NPYLR7 agonist -4 and NPYLR7 agonist max-min -8.
`Nc1nc(Nc2ccccc2)nc(C(F)(F)F)n1` gave NPYLR7 agonist 3 and NPYLR7 agonist max-min 1.

The last two records of the section above are carried over, then new ones follow:
`CCCC(C)NC(=O)CN1C(=O)NC(CC)(c2ccccc2)C1=O` (stereo not given) gave NPYLR7 agonist -4 and NPYLR7 agonist max-min -8.
`Nc1nc(Nc2ccccc2)nc(C(F)(F)F)n1` gave NPYLR7 agonist 3 and NPYLR7 agonist max-min 1.
For Cc1ccc(C(=O)Nc2sc3c(c2C(=O)Nc2ccccc2)CCCC3)cc1 the results were NPYLR7 agonist -9 and NPYLR7 agonist max-min -13.
O=C(C1CCC1)N1CCCC(OCc2cc(F)cc(F)c2)C1 (stereo not given) was read as NPYLR7 agonist -4 and NPYLR7 agonist max-min 0.
CC1(C(=O)NCc2ccc3c(c2)OCO3)CCN1C(=O)Cc1cccc2ccccc12 (stereo not given) was read as NPYLR7 agonist -2 and NPYLR7 agonist max-min -5.
`CC(Cc1ccco1)NS(=O)(=O)C1=Cc2ccccc2CC1` (stereo not given) gave NPYLR7 agonist -25 and NPYLR7 agonist max-min -27.
Screening CCNC(=O)CC1=CSC2=NC(c3ccccc3)=C(C(=O)OCC)C(c3ccc(C)cc3)N12 (stereo not given) returned NPYLR7 agonist 3 and NPYLR7 agonist max-min 5.
Screening CNCCCC1Sc2ccccc2Oc2ccccc21 (stereo not given) returned NPYLR7 agonist -5 and NPYLR7 agonist max-min -5.
`Nc1cc(-c2cccc(C(F)(F)F)c2)nn1-c1ccc(C(=O)Nc2cccc(Cl)c2)cc1` gave NPYLR7 agonist -3 and NPYLR7 agonist max-min -6.
`COC(=O)C1=C(C)NC2=C(C(=O)CC(c3ccccc3Cl)C2)C1c1ccccc1OC` (stereo not given) gave NPYLR7 agonist -6 and NPYLR7 agonist max-min -12.
Cn1cc(C(=O)N2CC[C@@H](c3ccc4ccccc4c3)[C@H](O)C2)cn1 was read as NPYLR7 agonist 14 and NPYLR7 agonist max-min 10.
For Cc1cn2c3c(=O)n(C)c(=O)n(C)c3nc2n1-c1ccccc1 the results were NPYLR7 agonist -5 and NPYLR7 agonist max-min -9.
Screening O=C(Nc1ccc(F)cc1F)N1CCN(c2ccccc2Cl)CC1 returned NPYLR7 agonist 0 and NPYLR7 agonist max-min 25.
Screening OC(c1ccccc1)c1nc(/C=C/c2ccc(C(F)(F)F)cc2)cs1 (stereo not given) returned NPYLR7 agonist -3 and NPYLR7 agonist max-min -3.
For CC(C)(C)c1nnc(N/N=C\c2ccc(Br)cc2)[nH]c1=O the results were NPYLR7 agonist 5 and NPYLR7 agonist max-min 3.
`Cc1nc(CN2CC(OCc3ccncc3)CN(C(=O)c3sc(C)nc3C)CC2=O)cs1` (stereo not given) gave NPYLR7 agonist 20 and NPYLR7 agonist max-min 4.
For O=C(C1=C(O)C(=O)N(CCCN2CCOCC2)C1c1cccc([N+](=O)[O-])c1)c1cccs1 (stereo not given) the results were NPYLR7 agonist 6 and NPYLR7 agonist max-min 5.
Screening C[C@H]1O[C@@H](n2cc(F)c(=O)[nH]c2=O)[C@H](O)[C@@H]1O returned NPYLR7 agonist 0 and NPYLR7 agonist max-min -30.
`NC(=O)COC(=O)c1csc(-c2ccc(Br)s2)n1` gave NPYLR7 agonist 5 and NPYLR7 agonist max-min 2.
For O=C(Nc1ccc(-n2nc(OCc3ccc(F)cc3)nc2-c2ccc(C(F)(F)F)cc2)cc1)c1ccco1 the results were NPYLR7 agonist 17 and NPYLR7 agonist max-min 23.
Screening Cc1nn(-c2ccccc2)c(C)c1/C=N\NC(=O)c1cc(-c2ccco2)[nH]n1 returned NPYLR7 agonist -1 and NPYLR7 agonist max-min 1.
For O=C(C1CC12CCC2)N1CCc2c(nc(-c3ccccn3)[nH]c2=O)C1 (stereo not given) the results were NPYLR7 agonist 10 and NPYLR7 agonist max-min 8.
Screening CS(=O)(=O)c1ccc(S(=O)(=O)Nc2cc3c(c(C(=O)O)c2)OCCO3)cc1 returned NPYLR7 agonist 9 and NPYLR7 agonist max-min 7.
COCCN(Cc1nc2cc(Cl)ccc2o1)C(=O)Cc1ccc(OC)c(OC)c1 was read as NPYLR7 agonist 2 and NPYLR7 agonist max-min -4.
CCOC(=O)N1CCN(C(=O)CSc2ncnc3c2nnn3CC)CC1 was read as NPYLR7 agonist -2 and NPYLR7 agonist max-min 23.
For CCCCCn1c(NCCCOC)nc2c1c(=O)[nH]c(=O)n2C the results were NPYLR7 agonist 13 and NPYLR7 agonist max-min 9.
For Cc1ccc(C(=O)NNc2cc(=O)n(C)c(=O)n2C)cc1C the results were NPYLR7 agonist 4 and NPYLR7 agonist max-min 2.
Cc1c(C(=O)NCCc2ccc(S(N)(=O)=O)cc2)sc2nc(-c3ccccc3)cn12 was read as NPYLR7 agonist 4 and NPYLR7 agonist max-min 2.
For CCC(=O)Nn1cnc2c(cnn2C(C)(C)C)c1=O the results were NPYLR7 agonist 1 and NPYLR7 agonist max-min 0.
`CC1CN(c2cc(Cl)nc(SCC(=O)N3CCN(c4ccccc4F)CC3)n2)CCN1C(=O)C1CCCC1` (stereo not given) gave NPYLR7 agonist 6 and NPYLR7 agonist max-min 14.
Screening O=C(Nc1nc2c(s1)CCCC2C(=O)Nc1ccc2c(c1)OCCO2)c1ccccc1 (stereo not given) returned NPYLR7 agonist 6 and NPYLR7 agonist max-min 2.
Screening Cc1cccc(Cn2c(C(=O)N3CCN(C(=O)Nc4cccc(C)c4)C(C)C3)cc3ccoc32)c1 (stereo not given) returned NPYLR7 agonist 1 and NPYLR7 agonist max-min 4.
For O=C(O)C1CCCN1C(=O)Cc1ccc2ccccc2c1 (stereo not given) the results were NPYLR7 agonist 4 and NPYLR7 agonist max-min 2.
`CC(C)N(C(=O)Cn1nc(C2CC2)c2cnn(-c3ccccc3)c2c1=O)C(C)C` gave NPYLR7 agonist 7 and NPYLR7 agonist max-min 2.
For Cc1ccccc1-c1noc(C(C)Oc2cccc(C#N)c2)n1 (stereo not given) the results were NPYLR7 agonist -8 and NPYLR7 agonist max-min -9.
Cc1nnc(Sc2ccc(C#N)cc2[N+](=O)[O-])o1 was read as NPYLR7 agonist 6 and NPYLR7 agonist max-min 7.
`CCc1ccc(NC(=NS(=O)(=O)c2ccc(C)cc2)Nc2nc(C)cc(C)n2)cc1` gave NPYLR7 agonist -4 and NPYLR7 agonist max-min -4.
Cc1nc2sccn2c1C(=O)NCCc1csc(-c2cccnc2)n1 was read as NPYLR7 agonist 21 and NPYLR7 agonist max-min 8.
For CCCC1(CCC)NC(=O)N(CC(=O)O)C1=O the results were NPYLR7 agonist -3 and NPYLR7 agonist max-min -7.

Screening results (PubChem)
